# From PubChem BioAssay
# Rango complex inh: prevents formation of the Rango-importin beta complex; Q14974; Rango CFP/YFP FRET sensor + importin beta, 45 min; Potency, µM (series often up to 92.2 µM), for inactives: at the highest dose inhibition of complex formation; 340,000 tested, 0.031% active; active = rising FRET ratio curve, often small or poorly fitted; inconclusive = mostly compound fluorescence or quenching in the first reads; inactive = flat curves in all reads;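 also: potency is read from the fitted curve at half-maximal effect; 0% = DMSO wells and 100% = buffer wells lacking importin beta; nearly all actives have a fitted effect of over 15% in size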
#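 FRET biosensor Rango (snurportin 1 IBB between N-terminal EYFP and C-terminal Cerulean), 50 nM in PBS/1 mM DTT/0.02% Tween-20/0.1% BSA, preincubated 5 min RT with compound; 0.125 microM importin beta added, 45 min RT, CFP/YFP FRET ratio read.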
# GLA inh pH 4.5: inhibitors of human alpha-galactosidase A at pH 4.5; P06280; purified enzyme, 4-MU-alpha-Gal fluorescence, pH 4.5; activity change, negative = inhibition, % at 105 µM; 230,000 tested, under 10 active; AID 1467; inconclusive = small, poorly fitted or top-dose-only inhibition, or a rising curve; inactive = flat fitted curve, though single readings scatter; no compound was filed as active;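 also: 0% = full activity with enzyme and -100% = basal without enzyme; dose as in the result columns while the protocol names 77 µM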
# Target sequence (P06280 whole entry, looked up): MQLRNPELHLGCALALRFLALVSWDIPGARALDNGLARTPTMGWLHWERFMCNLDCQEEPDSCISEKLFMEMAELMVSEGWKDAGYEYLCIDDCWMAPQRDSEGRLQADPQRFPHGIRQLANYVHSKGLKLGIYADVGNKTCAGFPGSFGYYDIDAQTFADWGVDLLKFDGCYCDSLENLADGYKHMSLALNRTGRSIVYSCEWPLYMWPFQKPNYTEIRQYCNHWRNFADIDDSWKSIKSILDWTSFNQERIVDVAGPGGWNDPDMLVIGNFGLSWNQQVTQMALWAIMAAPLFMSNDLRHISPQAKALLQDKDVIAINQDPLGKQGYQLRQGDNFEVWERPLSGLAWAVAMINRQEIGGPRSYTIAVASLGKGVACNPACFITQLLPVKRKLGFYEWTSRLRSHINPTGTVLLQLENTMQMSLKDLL
# Rango dissoc inh: prevents RanGTP from dissociating the Rango-importin beta complex; O95149+P62826; Biochemical FRET Rango-importin beta, RanGTP-induced dissociation; Potency, µM (doses to about 46.1 µM), inactives show at the top dose activity change, negative = inhibition; 340,000 tested, 0.071% active; active means falling FRET ratio curve, often poorly fitted, with flat reads before Ran was added; inconclusive means other falling curves, or compound fluorescence or quenching; inactive means flat or rising ratio curve;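 also: potency is read from the fitted curve at half-maximal effect; % of control where 0% means no effect; nearly all actives have a fitted effect of over 45% in size; -100% = wells without RanGTP and RCC1; the record marks most hits as doubtful in a second field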
#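 Quantitative HTS using a FRET biosensor: 0.1 uM Rango, 0.25 uM importin beta, 0.6 uM Ran, 2 mM GTP, 0.2 uM RCC1 final, PBS with DTT, Tween-20 and BSA. Post-read taken 45 min after Ran addition.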
# miR-21 reporter: miR-21 reporter, rising signal. 340,000 tested, under 10 active. Potency, µM (titrated, usually from 38.3 µM), for inactives: top-dose reporter change, positive = more light. HeLa miR-21 FLuc reporter, luciferase, 48 h; active = well fitted rising curve with a large enough effect; inconclusive = small, poorly fitted or top-dose-only effect; inactive = no such curve, though single readings can be large or run the other way;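 also: % of control where 0% means no effect; miR-21 action dims this reporter so a rising signal means less miR-21 action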
#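 Using DMEM plus 10% FBS, HeLa miR-21-FLuc cells are incubated with test compounds (final up to about 40uM) for 48 hours; firefly luciferase signal is then imaged following reagent-mediated lysis.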
# * hit, by the source's call; ? = inconclusive; / = not tested or not shown; & = joins results of further samples.
# The opening 2 compounds, ahead of the listing:
SMILES,Rango complex inh,GLA inh pH 4.5,Rango dissoc inh,miR-21 reporter
COc1cc(C(=O)Nc2cccc(-c3nncn3C)c2)cc(OC)c1OC,5.0%,-6,4%,0%
Cc1cccc2cc(CN(CCCO)C(=O)Nc3ccc(Cl)cc3)c(=O)[nH]c12,-2.2%,2,3%,-13%

# Main list, from the start:
SMILES,Rango complex inh,GLA inh pH 4.5,Rango dissoc inh,miR-21 reporter
COc1cc(C(=O)Nc2cccc(-c3nncn3C)c2)cc(OC)c1OC,5.0%,-6,4%,0%
Cc1cccc2cc(CN(CCCO)C(=O)Nc3ccc(Cl)cc3)c(=O)[nH]c12,-2.2%,2,3%,-13%
Cc1cc(NS(=O)(=O)c2ccc(NC(=O)COc3ccccc3C(C)(C)C)cc2)no1,-0.1%,/,22%,-8%
C=CCN(C(=O)Nc1ccc(Cl)cc1)C1CC(=O)N(c2ccc(OC)cc2)C1=O (centres undefined),3.5%,3,6%,1%
CSC1=C(C#N)C(C)C2=C(CC(C)(C)CC2=O)N1 (centres undefined),-1.6%,-5,-3%,8%
Cc1nnc(N2CCC(C(=O)NC3CCC(C)CC3)CC2)c2nn(-c3ccc(Cl)cc3)c(C)c12 (centres undefined),0.9%,/,9%,1%&6%
Cc1ccccc1CC(=O)OCC(=O)Nc1ccc(C)c(S(=O)(=O)N2CCCCC2)c1,?,/,-3%,/
CCOc1ccccc1NC(=O)NC1(C(=O)NCC2CCCO2)CCCCC1 (centres undefined),-0.5%,/,5%,3%
CCC(C)C(NC(N)=O)C(=O)Nc1ccc(OCc2ccccc2)cc1 (centres undefined),-0.1%,7,10%,-10%
Cc1n[nH]c(=O)nc1NCCc1ccccc1,1.7%,2,-5%,-1%
COc1cc(NS(=O)(=O)c2ccc(NC(=O)c3ccc(C)o3)cc2)nc(OC)n1,0.2%,-2,4%,-3%
CCCCC(=O)Nc1ccc(C(=O)N2CCCC(C(=O)OCC)C2)cc1 (centres undefined),-1.6%,-16,-1%,-8%
O=[N+]([O-])c1ccc(/C=[N+](\[O-])CCO)o1,8.8%,-11,4%,7%
COc1cccc(-n2nc(C(C)=O)c(=O)[nH]c2=O)c1,2.3%,2,4%,-5%
CSc1nnc(CCNC(=O)OC(C)(C)C)o1,1.7%,-2,7%,-2%
CC(C)c1ccc(NC(=O)CN2C(=O)NC(C)(C3CC3)C2=O)cc1 (centres undefined),0.5%,/,17%,/
COc1ccc(C2CC(c3ccccc3OC(C)=O)=NN2C(C)=O)cc1 (centres undefined),5.2%,7,27%,-42%
Cc1ccc(C)c(NS(=O)(=O)c2ccc3c(c2)NC(=O)CO3)c1,?,/,0%,-4%
CCOc1ccc2nc(SCC(=O)NCc3ccc(OC)c(OC)c3)[nH]c2c1,-2.8%,-5,-5%,-1%
Cc1c(C(=O)N2CCN(Cc3ccc4c(c3)OCO4)CC2)sc2ncnc(N3CCN(c4ccccc4)CC3)c12,-3.1%,/,?,16%
CC1=NOC(=O)/C1=C/c1ccc(O)c(Cl)c1,1.9%,/,-2%,1%
Cc1nnc2sc(-c3cccc(NC(=O)c4cccnc4)c3)nn12,2.6%,-5,1%,0%
Cc1[nH]c2ccccc2c1CCNC(=O)c1ccc2nccnc2c1,3.3%,/,5%,-10%
COc1ccc(CCNC(=O)C2CCCN(S(=O)(=O)N3CCCCCC3)C2)cc1OC (centres undefined),0.3%,/,-6%,0%
Cc1ccc2cc(CN(Cc3cccs3)Cc3nnnn3C(C)(C)C)c3nnnn3c2c1,/,4,/,-2%
O=C1/C(=C\c2ccc(Br)o2)Cc2ccccc21,?,1,-15%,-29%
COc1cccc(CN2CCN(C(=O)c3ccco3)CC2)c1,-2.4%,/,-5%,-7%
Nc1nnc(SCC(=O)Nc2nccs2)s1,2.9%,/,-11%,2%
Cc1ccc2c(c1)N(CC(=O)N1CCCCC1)C(=O)C(C)O2 (centres undefined),3.5%,/,-6%,-2%
C=C1CCC[C@]2(C)C[C@H]3OC(=O)C(CNC(CC)CO)[C@H]3CC12 (some centres undefined),-2.9%,/,21%,14%
COc1ccc(S(=O)(=O)N(C)C)cc1NC(=O)COC(=O)CC1CCCC1,-2.7%,-4,-3%,-4%
CC1=NN(c2ccccc2)C(=O)/C1=C\N(O)c1ccccc1,-0.5%,/,14%,2%
O=C(NC1CC1)C1CCN(C2CCN(C(=O)Cc3ccc4c(c3)OCO4)CC2)CC1,0.5%,5,3%,6%
CCC(C)(C)NC(=O)CN(Cc1ccccc1Cl)C(=O)CCC(=O)Nc1cc(C)ccn1,4.3%,-6,3%,0%
Cc1cc(NC(=O)c2noc3c2CCc2ccccc2-3)n(-c2ccccc2)n1,-1.5%,-5,?,1%
CN(C(=O)Cn1nnc(-c2cccnc2)n1)C1CCCCC1,0.4%,2,-11%,-3%

# Some entries already given with just miR-21 reporter.
canonical_smiles	miR-21 reporter
COc1ccc(S(=O)(=O)N(C)C)cc1NC(=O)COC(=O)CC1CCCC1	-4%
CC1=NN(c2ccccc2)C(=O)/C1=C\N(O)c1ccccc1	2%

# Pulled one by one from the list above (five):
SMILES,Rango complex inh,GLA inh pH 4.5,Rango dissoc inh,miR-21 reporter
CCOc1ccccc1NC(=O)NC1(C(=O)NCC2CCCO2)CCCCC1 (centres undefined),-0.5%,/,5%,3%
Cc1cccc2cc(CN(CCCO)C(=O)Nc3ccc(Cl)cc3)c(=O)[nH]c12,-2.2%,2,3%,-13%
COc1ccc(S(=O)(=O)N(C)C)cc1NC(=O)COC(=O)CC1CCCC1,-2.7%,-4,-3%,-4%
Cc1cc(NC(=O)c2noc3c2CCc2ccccc2-3)n(-c2ccccc2)n1,-1.5%,-5,?,1%
O=C(NC1CC1)C1CCN(C2CCN(C(=O)Cc3ccc4c(c3)OCO4)CC2)CC1,0.5%,5,3%,6%

# Next entries
SMILES,Rango complex inh,GLA inh pH 4.5,Rango dissoc inh,miR-21 reporter
Cc1ccccc1CSCc1ccc(C(=O)NCCCN2CCOCC2)o1,?,-5,1%,-5%
C/C(=N/OC(=O)c1c(F)cccc1F)c1nccs1,5.3%,5,7%,-10%
CC(=O)c1ccc(NC(=O)C(C)Oc2ccc(N(C)S(=O)(=O)c3ccc(C)cc3)cc2)cc1 (centres undefined),0.2%,/,3%,/
COc1ccc(OCc2cc(C(=O)NCC3(C)COC3)no2)c(Cl)c1,0.8%,/,2%,-32%
O=C(CS(=O)(=O)c1ccccc1Cl)N1CCOCC1,-0.8%,/,-8%,0%
Cc1ccc(NC(=O)COc2ccc(/C=N/NC(=O)CSCc3ccccc3)cc2)cc1,0.6%,-1,5%,1%
Cc1ccc(C2CC(C(F)F)n3ncc(C(=O)Nc4c(C)nn(Cc5c(F)cccc5Cl)c4C)c3N2)cc1 (centres undefined),0.9%,-13,17%,-7%
CC(OC(=O)c1cccs1)C(=O)NCc1ccccc1 (centres undefined),0.0%,4,1%,-7%
CSc1ccccc1NC(=O)C1CC(c2ccccc2Cl)=NO1 (centres undefined),-0.5%,/,33%,-15%
Cc1ccc2[nH]c(=O)c3cc(C(=O)N(C)Cc4ccco4)sc3c2c1,-0.1%,10,-10%,-31%
COc1ccc(NC(=O)c2ccccc2Cl)c(NC(=O)c2ccco2)c1,-0.3%,/,22%,-9%
CS(=O)(=O)N(CC(=O)NCc1ccccc1)Cc1ccc(Cl)cc1,1.4%,-3,8%,8%
O=C(CCCc1ccccc1)NCc1ccccn1,0.3%,/,-5%,-16%
COc1ccc(C(=O)Nc2cccnc2)cc1OC,2.9%,3,1%,-19%
CC(C)Cc1nc2sc3c(c2c(=O)n1N)CC(C)(C)OC3,1.4%,-7,1%,-2%
CC(C)(Oc1ccc(Cl)cc1)C(=O)N(Cc1ccccc1)c1ccccn1,-1.6%,-1,-2%,-1%
COc1ccc(C(=O)NNC(=O)CSc2nnc(C(C)C)n2C)cc1,-0.8%,/,-3%,-2%
CCN(CC)CCNC(=O)c1ccc(NC(=O)c2ccc3c(c2)CCC3)cc1,0.4%,/,4%,-34%
O=C(NCc1ccccc1)C(=O)NCC(c1ccco1)N1CCOCC1 (centres undefined),?,-3,-8%,-7%
Cc1cc(C(=O)NCc2ccc3c(c2)OCO3)c(C)o1,1.4%,4,7%,-10%
COCCN1C(=O)CC(NNC(=O)c2ccc(S(=O)(=O)N3CCCC3)cc2)C1=O (centres undefined),7.4%,5,-15%,3%
O=C(O)c1cn[nH]c1-n1cnnn1,8.4%,8,9%,-2%
Cc1ccc(S(=O)(=O)N(C)C)cc1NC(=O)CN1C(=O)NC(Cc2ccccc2)C1=O (centres undefined),0.8%,/,-15%,/
COc1ccc(S(=O)(=O)NCC2CCCN(C(=O)c3cccs3)C2)cc1 (centres undefined),-3.1%,6,-9%,-4%
COc1ccccc1NC(=O)COc1ccc(C(=O)NCC2CCCO2)cc1OC (centres undefined),2.4%,/,-13%,/
CN(Cc1ccccc1F)C(=O)CCCNC(=O)c1ccc(Cl)cc1,0.0%,/,3%,3%
C/C(=N\NC(=O)c1ccccc1F)c1ccc2c(c1)Nc1ccccc1S2,-1.2%,1,1%,-44%
COc1ccc(NC(=O)c2ccc(OC)cc2)cc1,1.2%,-3,5%,-47%
CCOC(=O)c1cnc(SSc2ncc(C(=O)OCC)c(N)n2)nc1N,0.2%,/,11%,-3%
O=C(Cn1cnc2c(OCc3ccccc3)ncnc21)NCCN1CCOCC1,0.0%,/,-8%,/
C=CCN1C(=O)C2(OCCCO2)c2cccc(C)c21,0.1%,/,-16%,0%
Cc1ccc(Cl)cc1N(CC(=O)NCc1ccccc1)S(C)(=O)=O,2.3%,/,15%,8%
COc1ccc(S(=O)(=O)N2CCC(C(=O)N3CCc4ccccc4C3)CC2)cc1OC,0.0%,-7,-1%,-3%
CCCCN=C1NC(=O)C(CC(=O)Nc2ccc(Cl)cc2)S1 (centres undefined),0.2%,-20,-3%,8%
COc1ccc([C@@H]2COc3c(ccc4c3C=CC(C)(C)O4)C2)c(OC)c1,1.2%,/,10%,/
O=c1[nH]c(-c2ccc(-c3cccc(Cl)c3)o2)nc2ccccc12,?,/,-7%,/
CC(C)CN1C(=O)c2ccc(NC(=O)C3CC3)cc2C1=O,0.3%,/,-10%,-4%
Cc1ccc(-c2nc(SC(C)C(=O)N3CCCC3)n[nH]2)cc1 (centres undefined),-0.8%,/,6%,/
CN(CC1CCOCC1)C(=O)CC1C(=O)NCCN1C/C=C/c1ccccc1 (centres undefined),-2.6%,7,1%,0%
Cc1ccc(C(=O)NCc2nnc(SCC(=O)Nc3sc4c(c3C#N)CCCC4)n2C)cc1,0.3%,-11,0%,-4%
CCC(CC)C(=O)OCC(=O)Nc1cccc([N+](=O)[O-])c1,-0.4%,2,11%,-9%
Cc1ccc(S(=O)(=O)Oc2ccccc2N2C(=O)C3C4CCC(C4)C3C2=O)cc1 (centres undefined),2.1%,/,0%,1%
Cc1ccc(OCC(=O)NCCO)cc1C,?,-6,3%,-9%
COc1ccc(C(C(=O)NCC2CCCO2)N(C(=O)CNC(=O)c2ccco2)c2ccccc2)cc1OC (centres undefined),-3.4%,/,-14%,2%
O=C(Oc1cccc(-n2cnnn2)c1)c1ccco1,-1.2%,6,1%,-3%
CCCCC(=O)Nc1cccc(NC(=S)NC(C)=O)c1,-0.2%,1,1%,0%
CC(C)(C)[C@@H]1CCC(=O)N(CC[C@H](Sc2ccc(Br)cc2)c2ccccc2)CC1,?,/,-5%,/
C#CCOCCOCCOCCNc1nc(N2CCN(C(=O)[C@H](CCC(=O)O)n3cc(C(N)CO)nn3)CC2)nc(N2CCN(C(=O)[C@H](Cc3cc4ccccc4[nH]3)n3cc(C(N)[C@H](C)CC)nn3)CC2)n1 (some centres undefined),-4.8%,-5,-20%,0%

# Some of the compounds tested, so the mix of outcomes need not match the whole.
